TRPML1 inh: human mucolipin-1 channel inhibition | Q9GZU1 | TRPML1-inducible cells, Ca2+ dye fluorescence, FDSS; stronger effect = lower value; inhibition of EC80 agonist-evoked calcium signal | activity change, negative = inhibition, % (test concentration not listed) | 0.02% of 390,000 active; in the data active means activity change below about -50%; inconclusive means about -30% to -50%; inactive means above about -30%;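 note: stimulus is agonist 54-4 at its EC80 concentration; % is set by controls: 0 for no effect and ±100 for the full control effect; compound concentration not given in the record; the text of the record puts the active cut at -80%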
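Tet-induced TRPML1-DL cells loaded with Ca8 no-wash calcium dye were read kinetically on FDSS. Compound addition was followed by EC80 agonist 54-4 (4 uM final); inhibition was read over 110 s.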
CtBP-E1A blk: CtBP/E1A binding inhibition. activity change, % (no concentration beside the values). AlphaScreen GST-E1A/His-CtBP binding, 1536-well; stronger effect = lower value; control for the full effect not named in the record. AID 651724. 0.49% of 340,000 active; in the data active means activity change below about -65%; inconclusive means about -30% to -65%; inactive means above about -30%; note: % is set by controls: 0 for no effect and ±100 for the full control effect; compound concentration not given in the record
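Protein mix (5X: 125 nM each GST-E1A, His-CtBP) was incubated with pinned compound 2 h at 37 deg C in dark, in 50 mM Tris pH 8.0 buffer with 300 mM NaCl. Glutathione donor and nickel acceptor beads followed; AlphaScreen signal read after 1 h.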
D2 PAM: human D2 receptor positive allosteric modulation. AID 624464. 0.23% of 360,000 active. potentiation, % (no concentration beside the values). DiscoveRx D2 beta-arrestin cells, luminescence, 90 min; 100% = 57 uM dopamine signal; active = potentiation of 50% or more; inconclusive = 30% to 50%; inactive = 30% or less;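 note: compound concentration not given in the record; tested on top of an EC20 dose of dopamine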
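PathHunter beta-arrestin assay in DiscoveRx D2 cells. Compounds were added with an EC20 of dopamine (50 nM final) for 90 min at 37 deg C. Luminescence was read 1 h after detection reagent, with 57 uM dopamine as the EC100 control.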
Six1-Eya2 blk: Six1/Eya2 interaction inhibition. 0.56% of 360,000 active. activity change, % (no concentration beside the values). Q15475+O00167. AlphaScreen GST-Six1/His-Eya2 binding, biochemical; stronger effect = lower value; control for the full effect not named in the record; in the data active = activity change below about -65%; inconclusive = about -30% to -65%; inactive = above about -30%; note: % is set by controls: 0 for no effect and ±100 for the full control effect; compound concentration not given in the record
Target sequence (O00167 whole entry, looked up): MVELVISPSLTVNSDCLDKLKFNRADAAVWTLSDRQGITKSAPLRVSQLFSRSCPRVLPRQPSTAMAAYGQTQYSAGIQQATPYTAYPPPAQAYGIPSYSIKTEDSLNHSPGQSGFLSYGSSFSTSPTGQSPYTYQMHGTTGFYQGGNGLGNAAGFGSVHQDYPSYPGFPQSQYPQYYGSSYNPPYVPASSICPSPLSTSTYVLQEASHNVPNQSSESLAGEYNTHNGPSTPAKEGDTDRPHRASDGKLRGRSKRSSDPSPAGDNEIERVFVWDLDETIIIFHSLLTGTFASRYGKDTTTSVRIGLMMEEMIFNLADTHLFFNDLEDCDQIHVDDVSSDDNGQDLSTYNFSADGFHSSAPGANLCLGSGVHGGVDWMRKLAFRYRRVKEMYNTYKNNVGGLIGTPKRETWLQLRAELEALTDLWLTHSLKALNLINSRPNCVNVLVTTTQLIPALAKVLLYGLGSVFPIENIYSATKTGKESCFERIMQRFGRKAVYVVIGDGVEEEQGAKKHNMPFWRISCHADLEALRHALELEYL
Target sequence (Q15475 whole entry, looked up): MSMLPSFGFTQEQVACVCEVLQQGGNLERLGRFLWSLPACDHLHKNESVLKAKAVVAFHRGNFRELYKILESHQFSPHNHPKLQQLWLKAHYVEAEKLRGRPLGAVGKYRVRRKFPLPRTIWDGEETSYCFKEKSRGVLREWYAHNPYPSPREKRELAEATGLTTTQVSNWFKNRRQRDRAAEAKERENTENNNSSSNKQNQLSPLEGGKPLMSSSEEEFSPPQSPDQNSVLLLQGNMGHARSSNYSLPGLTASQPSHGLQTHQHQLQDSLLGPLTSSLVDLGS
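AlphaScreen with GST-Six1 and His-Eya2 (5X mix: 250 nM and 500 nM), glutathione donor and nickel acceptor beads; buffer 50 mM Tris pH 8.0, 300 mM NaCl, 1 mM TCEP; 1 h at 37 C in the dark.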
TRPV1 PAM: human TRPV1 potentiation; TRPV1-expressing cells, Fluo-8 calcium influx, capsaicin EC20 potentiation; host cell line not named in the record; control for the full effect not named in the record; potentiation, % at 8.33 µM; AID 540277; 0.02% of 320,000 active; Q8NER1; active means potentiation above 80%; inconclusive means 30% to 80%; inactive means below 30%; note: 0% is about no effect
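Cells expressing TRPV1 were dye-loaded with Fluo-8 and read kinetically: 10 s baseline, 3 min after compound (agonist portion), then 2 min after EC20 capsaicin (allosteric enhancer portion). Calcium-bound dye fluorescence at 480/520 nm.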
TRPML1 ag: human mucolipin-1 channel agonism. TRPML1-expressing cells, Ca2+ dye fluorescence, FDSS; host cell line not named in the record; reference of the full effect not given here. Q9GZU1. activation, % (test concentration not listed). 0.12% of 410,000 active; in the data active = activation above about 50%; inconclusive = about 30% to 50%; inactive = below about 30%; note: 0% is about no effect; the text of the record puts the active cut at 80%
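Cells: TRPML1-DL, 1X Tet inducer, ~16 h at 37 degrees C/5% CO2. Dye: ABD Ca8 no-wash + quencher, 45-90 min RT. Read: 10 s baseline, compound add, 110 s agonist phase; 54-4 EC80 (4uM final), 110 s antagonist phase.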
The depositor's hits bear a star; ? = inconclusive; · = not tested or not shown; & = joins results of further samples. Outcome played no part in choosing rows (roughly 0.95% active in at least one column).

SMILES	TRPML1 inh	CtBP-E1A blk	D2 PAM	Six1-Eya2 blk	TRPV1 PAM	TRPML1 ag
COC(=O)c1ccc2c(=O)n(CC3CCCO3)c(SCC(=O)Nc3ccc(OC)cc3OC)nc2c1 (stereo not drawn)	·	11	1	2	17	·
CN(Cc1ccccc1)S(=O)(=O)c1ccc(Cl)c(C(=O)N2CCC(C(N)=O)CC2)c1	21	-7	-4	-2	·	1.1
O=C(O)C1CC=CCC1C(=O)N1CCc2ccccc21 (stereo not drawn)	5	4	4	-4	23	0.5
CCCc1nc(SCc2ccc(OCC)cc2)n[nH]1	10	9	-6	2	-11	0.5
Cc1ccc(-c2nnn(CC(=O)N(CC(=O)NCc3ccccc3)c3cccc(C)c3C)n2)o1	-2	-10	-4	-10	-4	2.1
Cc1noc(C)c1S(=O)(=O)NCCc1ccc(S(N)(=O)=O)cc1	-7	4	14	3	?	2.7
CCCC(=O)Nc1cccc(NC(=O)Cc2ccc(Cl)cc2)c1	-17	-1	-3	2	·	-0.1
CCN(CC)c1ccc(NC(=O)COc2ccc(N(C)S(=O)(=O)c3cccs3)cc2)cc1	9	?	3	?	2	-1.3
Cc1cc(NC(=O)COC(=O)COc2ccc(Cl)cc2C)c([N+](=O)[O-])cc1C	-7	?	-11	-14	24	0.6
Cc1ccccc1OCc1nc(-c2ccc(NC(=O)c3cccs3)cc2)no1	11	20	1	10	-4	1.9
CC(C)(C)c1ccc(C(=O)N/C(=C\c2cccc([N+](=O)[O-])c2)C(=O)Nc2cccc(C(=O)O)c2)cc1	-4	-3	-4	?	-6	-0.2
Cc1cc(C(C#N)c2ccccc2F)n2ncnc2n1 (stereo not drawn)	-12	2	-5	-1	3	4.1
Cc1n[nH]c(=O)nc1NC1CCCCC1	-2	2	-5	-2	-9	-0.9
COc1cccc(-c2ncc3ccccc3c2COC(=O)c2ccc(C(C)(C)C)cc2)c1	-13	-13	-24	2	7	0.0
CNC(=S)N/N=C/c1cn(CCOc2ccc(OC)cc2)c2ccccc12	0	-24	9	-27	-2	2.4
Cc1ccc(C)c(S(=O)(=O)N2CCCC2CNC(=O)C(=O)NC2CC2)c1 (stereo not drawn)	11	8	3	7	5	-0.6
CCOc1ccccc1NC(=O)COC(=O)C(Cc1ccccc1)NC(=O)c1ccco1 (stereo not drawn)	3	·	9	-2	-6	-0.4
Cc1c(C(=O)N2CCN(c3ccccc3)CC2)sc2ncnc(N3CCN(c4ccccn4)CC3)c12	13	4	8	19	1	0.0
Cc1ccccc1N1CCN(C(=S)c2ccc(-c3ccc([N+](=O)[O-])cc3)o2)CC1	11	-3	-3	0	?	-0.2
COc1ccc(/C=C/C(=O)NC(=S)Nc2ccc(S(=O)(=O)Nc3ccc(OC)nn3)cc2)cc1	-10	-77*	3	?	9	-0.7
O=S(=O)(Nc1ccon1)c1ccc(Br)s1	-3	7	-4	16	-8	0.0
CCOC(=O)C1C(C(=O)OC)=C(c2ccc(OC)cc2)c2ccccc2N1S(=O)(=O)C(F)(F)F (stereo not drawn)	-11	6	-3	0	·	-0.3
COc1ccc(NS(=O)(=O)c2cc(NC(=O)c3ccc(=O)[nH]c3)ccc2N2CCOCC2)cc1	0	·	-5	-30	-5	1.6
COC(=O)[C@@H](NCc1cccc(CN[C@H](C(=O)OC)c2ccccc2)c1)c1ccccc1	3	6	-8	1	-1	1.5

14 structures already listed, sorted by SMILES length, smallest number first:
SMILES	TRPML1 inh	CtBP-E1A blk	D2 PAM	Six1-Eya2 blk	TRPV1 PAM	TRPML1 ag
Cc1n[nH]c(=O)nc1NC1CCCCC1	-2	2	-5	-2	-9	-0.9
O=S(=O)(Nc1ccon1)c1ccc(Br)s1	-3	7	-4	16	-8	0.0
Cc1cc(C(C#N)c2ccccc2F)n2ncnc2n1 (stereo not drawn)	-12	2	-5	-1	3	4.1
CNC(=S)N/N=C/c1cn(CCOc2ccc(OC)cc2)c2ccccc12	0	-24	9	-27	-2	2.4
Cc1ccccc1OCc1nc(-c2ccc(NC(=O)c3cccs3)cc2)no1	11	20	1	10	-4	1.9
Cc1ccc(C)c(S(=O)(=O)N2CCCC2CNC(=O)C(=O)NC2CC2)c1 (stereo not drawn)	11	8	3	7	5	-0.6
CCOc1ccccc1NC(=O)COC(=O)C(Cc1ccccc1)NC(=O)c1ccco1 (stereo not drawn)	3	·	9	-2	-6	-0.4
COc1cccc(-c2ncc3ccccc3c2COC(=O)c2ccc(C(C)(C)C)cc2)c1	-13	-13	-24	2	7	0.0
Cc1cc(NC(=O)COC(=O)COc2ccc(Cl)cc2C)c([N+](=O)[O-])cc1C	-7	?	-11	-14	24	0.6
CCN(CC)c1ccc(NC(=O)COc2ccc(N(C)S(=O)(=O)c3cccs3)cc2)cc1	9	?	3	?	2	-1.3
Cc1c(C(=O)N2CCN(c3ccccc3)CC2)sc2ncnc(N3CCN(c4ccccn4)CC3)c12	13	4	8	19	1	0.0
COc1ccc(/C=C/C(=O)NC(=S)Nc2ccc(S(=O)(=O)Nc3ccc(OC)nn3)cc2)cc1	-10	-77*	3	?	9	-0.7
CCOC(=O)C1C(C(=O)OC)=C(c2ccc(OC)cc2)c2ccccc2N1S(=O)(=O)C(F)(F)F (stereo not drawn)	-11	6	-3	0	·	-0.3
CC(C)(C)c1ccc(C(=O)N/C(=C\c2cccc([N+](=O)[O-])c2)C(=O)Nc2cccc(C(=O)O)c2)cc1	-4	-3	-4	?	-6	-0.2

Additional structures follow:
SMILES	TRPML1 inh	CtBP-E1A blk	D2 PAM	Six1-Eya2 blk	TRPV1 PAM	TRPML1 ag
Cc1ccc(S(=O)(=O)C2(C(=O)N3CCN(c4cc(C)ccc4C)CC3)CC2)cc1	30	-3	-10	3	-15	0.6
CCCCN(C)CCNC(=O)CN1C(=O)CSc2ccc(S(=O)(=O)N3CCOCC3)cc21	-3&-3	1	-12	2	0	-0.4&0.6
CCOC(=O)CSc1nc2cc(S(=O)(=O)N3CCOCC3)ccc2n1CC	-7	9	-2	-1	-13	0.5
C/C(=N\N=C1\NC(=O)C(CC(=O)Nc2ccc(Cl)cc2)S1)c1ccco1 (stereo not drawn)	32	-1	1	-6	-7	0.3
N[C@@H](Cc1ccccc1)c1nnc(SCc2ccccc2F)o1	-8	0	-3	0	-6	-0.3
O=C(NC1CCCC1)C(c1ccncc1)N(C(=O)c1csnn1)c1cccc(F)c1 (stereo not drawn)	15	17	-4	9	3	0.0
COc1ccc(-n2c(CN3CCN(C)CC3)nc3ccc([N+](=O)[O-])cc3c2=O)c(OC)c1	-10	·	-4	-6	8	0.3
COc1ccc(CSCC(=O)N/N=C/c2ccc(OCC(=O)N3CCCCC3)cc2)cc1	23	-8	8	-17	-20	1.6
O=C(Nc1ccncc1)Nc1ccncc1	25	-4	-2	-3	7	-1.2
NC(=O)CSc1nnc(-c2ccc([N+](=O)[O-])cc2)o1	1	-12	16	-2	-2	-0.9
CCOc1ccc(S(=O)(=O)N2CCC(C(=O)NCc3ccccn3)CC2)cc1Cl	4	-3	-3	5	0	0.1
O=C(Nc1cc(S(=O)(=O)N2CCOCC2)ccc1Cl)c1cc2ccccc2o1	10	3	6	-23	-15	0.4
O=C(NCc1nc(-c2ccccc2)no1)c1ccc(Br)o1	-22	4	-5	2	4	-0.3
O=C(O)c1ccccc1OCc1ccccc1Br	3	·	-22	-7	25	0.4
COC(=O)c1ccc([C@H](NC(=O)c2ccco2)[C@]2(C)C[C@H]2C2CCCCC2)cc1	-6	-11	-25	-18	·	-0.9
C#CC(=O)N(c1cc(OC)ccc1OC)C(C(=O)NC1CCCC1)c1cccs1 (stereo not drawn)	-8	-11	-20	1	0	-0.3
COc1cccc(C=O)c1OC(=O)N1CCOCC1	9	-16	0	-8	-20	0.3
Cc1ccc(NC(=O)CCc2c(C)nc3ncnn3c2C)nc1	-3	3	2	-1	-24	-0.2
CC(=O)c1ccccc1OCC(=O)Nc1cccc(S(=O)(=O)N2CCCC2)c1	1	·	-12	-3	-9	0.1
COc1ccc(NC(=O)N2CCCC2C(=O)NCC2CCCCC2)cc1 (stereo not drawn)	-14	1	-4	1	9	-0.1
O=C(c1ccco1)N1CCN(C2CN(Cc3ccccc3)S(=O)(=O)C2)CC1 (stereo not drawn)	·	2	-5	4	·	-0.4
c1csc(-c2nc3ccccc3s2)c1	-10	-10	-1	-4	2	0.3
COc1ccc(S(=O)(=O)N2CCC(C(=O)N3CCOCC3)CC2)cc1	14	-6	-3	8	15	0.5
Cc1ccccc1OCC(=O)OCC(=O)N1CCCc2ccccc21	10	2	1	7	5	0.8
CC(OC(=O)[C@@H](NC(=O)OCc1ccccc1)C(C)C)C(=O)Nc1ccc(N2CCOCC2)cc1 (stereo partly drawn)	-13	23	8	18	·	-0.3
Cc1ccc(CN(Cc2cccnc2)C(=S)Nc2cccc(Cl)c2C)cc1	34	0	1	-3	-8	0.1
CCCCOCCCn1c(-c2ccco2)nc2nc3ccccc3nc21	27	5	-14	8	-13	1.1
COc1ccc(CCN2C(=NC(C)=O)SC3CS(=O)(=O)CC32)cc1OC (stereo not drawn)	-5	2	-5	4	-7	-0.6
O=C(CCc1n[nH]c(=O)[nH]c1=O)Nc1cccc([N+](=O)[O-])c1	18	-3	-4	3	-3	-0.5
O=C(NCCc1ccccc1)c1cccc(NC(=O)c2ccccc2)c1	-14	-3	-5	0	·	-0.5
Cc1ccc(C(=O)NCC(=O)Nc2ccncc2)s1	5	-15	-9	0	1	-0.3
CC(=O)Nc1nc(-c2cccs2)cs1	-11	0	-2	2	4	-0.9
C/C=C\C(=O)Nc1cccc(C2=NOC3(C2)C[C@@H](C(N)=O)N(C(=O)c2ccccc2)C3)c1 (stereo partly drawn)	0	-20	-7	-18	-21	-0.6
Cc1ccc(S(=O)(=O)N2CCN=C2SCc2ccc(Cl)c(Cl)c2)cc1	-5	1	4	3	-3	-0.5
O=C(Cn1nnc(-c2ccc(S(=O)(=O)N3CCCC3)cc2)n1)Nc1ccccc1-n1cccc1	-9	-1	1	-18	?	1.9
CCC(C)(C)NC(=O)/C=C/c1cc(OC)c(OC)c(S(=O)(=O)N2CCc3ccccc32)c1	-3	9	1	-6	-10	-0.4
CCOC(=O)N1CCN(C(=O)COc2cc(=O)n(C)c3ccccc23)CC1	-12	-1	-3	5	16	0.0
O=[N+]([O-])c1cccc(S(=O)(=O)NCCc2ccccc2)c1	0	-1	-1	0	-4	0.3
O=C(O)c1cc(=O)c2cc(Cl)ccc2o1	-3	4	-6	-1	-1	-0.8
